WNV NS2B-NS3 inh: blocks West Nile virus NS2B-NS3 protease activity | WNV NS2B-NS3 protease, fluorogenic substrate Ex360/Em465; stronger effect = lower value | z-score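 (tested at a level between 10 and 100 µM)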 | P06935 | hit rate 0.18% among 65,000;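 active = z-score at -3 or under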;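 note: score is relative to mean and spread of the compound wells of a plate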
Target sequence (P06935 1371-1501 limits assumed): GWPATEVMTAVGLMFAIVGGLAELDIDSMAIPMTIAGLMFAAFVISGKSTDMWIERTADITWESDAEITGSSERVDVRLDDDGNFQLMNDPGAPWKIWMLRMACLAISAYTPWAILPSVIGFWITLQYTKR
Target sequence (P06935 1502-1679 limits assumed): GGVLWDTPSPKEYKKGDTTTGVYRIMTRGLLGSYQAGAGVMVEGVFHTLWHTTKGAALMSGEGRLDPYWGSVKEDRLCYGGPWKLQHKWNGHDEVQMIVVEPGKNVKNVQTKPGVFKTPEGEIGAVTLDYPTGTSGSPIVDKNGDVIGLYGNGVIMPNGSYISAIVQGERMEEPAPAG
MT1-MMP reporter: MT1-MMP gene expression reporter suppression – cell-based, luciferase reporter, luminescence (AID 618). MT1-MMP promoter luciferase reporter cells, luminescence. calls from a first round at 10 µM; hits with a dose series show EC50 in µM. hit rate 0.62% among 87,000;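 active = over half of the reporter light lost at 10 µM or EC50 under 50 µM; inactive = the rest and hits that failed the dose series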;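 note: actives suppress MT1-MMP promoter-driven transcription so potencies describe inhibitors; HT1080 fibrosarcoma cells; overnight exposure; toxic or luciferase-blocking compounds were not removed from the actives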
Hsc70: small molecules displacing fluorescent ligand from Hsc70 – biochemical, fluorescence polarization, primary screen (AID 568) | Hsc70 fluorescence polarization, probe displacement; higher % means a stronger effect; strong numbers were not always called active | displacement, % at 20 µM, or IC50 in µM where a hit was titrated | 83,000 tested, under 10 active;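 active = displacement above 50% without optical interference and an IC50 on retest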;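 note: ATPase domain with a fluorescein-tagged ATP probe; 0% = vehicle and 100% = excess ADP; read after one hour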
Numbers without * were called inactive; i = inactive; / = not tested or not shown. Hits appear at their usual frequency; any-hit rate near 0.87%.

SMILES	WNV NS2B-NS3 inh	MT1-MMP reporter	Hsc70
CC(C)C(=O)N1CCN(c2ccccc2NC(=O)Cc2ccc(Cl)cc2)CC1	-0.51	i	-3.8%
O=S(=O)(Nc1ccc(C(F)(F)F)cc1)c1cnc[nH]1	0.36	i	0.8%
COc1ccc(-c2noc(CSc3nnc(CCc4ccccc4)n3-c3ccccc3)n2)cc1OC	0.78	i	-4.7%
COc1ccc(C(=O)N2CCCC(c3nc(-c4ccc(OC)c(OC)c4)no3)C2)c(OC)c1 (centres undefined)	-0.63	i	4.1%
CCCC(=O)N1CCN(c2ccc(NC(=O)c3ccccc3)cc2)CC1	0.59	i	-0.1%
Cc1ccc2ccc(S(=O)(=O)n3nc(C)cc3C)cc2c1	-0.92	i	-4.4%
Cc1cc(C)cc(OCC(=O)O/N=C(\N)c2ccccn2)c1	/	i	-1.3%
Cc1cc(NC(=O)c2ccc3c(c2)C(=O)N(Cc2cccnc2)C3=O)no1	-0.34	i	6.6%
CC(=O)c1c(C)nc2cc(Cl)ccc2c1N	-0.89	i	-1.5%
CCn1c(SCC(=O)N(Cc2ccccc2)C2CCS(=O)(=O)C2)nc2ccccc2c1=O (centres undefined)	0.1	i	-0.5%
O=S(=O)(NCC1CCCO1)c1cc(Cl)ccc1Br (centres undefined)	-0.43	i	0.2%
CC(c1ccccc1)n1c(-c2ccncc2)n[nH]c1=S (centres undefined)	-1.03	i	-0.7%
COc1cccc(OCCCN2CCCCC2)c1	-0.84	i	2.4%
CCOC(=O)c1c(C)[nH]c(C(=O)C(C)OC(=O)c2cccc(OCc3c(C)noc3C)c2)c1C (centres undefined)	-0.85	i	2.5%
O=S(=O)(NN=C1CCCCCCC1)c1ccc(Br)cc1	/	i	0.7%
CCc1nc(SCC(=O)NCC2CCCO2)c2oc3ccccc3c2n1 (centres undefined)	-0.6	i	3.0%
O=C(c1ccc2c(c1)N(Cc1ccccc1)C(=O)CS2)N1CCOCC1	0.15	i	2.0%
CC1CCN(C(=O)c2cc(-c3ccc(Cl)c(Cl)c3)on2)CC1	0.38	i	-2.5%
O=C1Nc2ccccc2C(O)(C(=O)NCc2ccco2)N1c1ccc(Cl)cc1 (centres undefined)	-0.23	i	-1.2%
CC1=C(C#N)C(NC(=O)C2CC2)(C(F)(F)F)C(=O)N1 (centres undefined)	1.37	i	5.9%
CC(C)(C)S(=O)(=O)c1c(C(=O)O)cccc1C(=O)O	1.85	i	1.3%
CC(C)c1[nH]nc2c1C(Cc1ccccc1)C(C#N)=C(N)O2 (centres undefined)	0.37	i	5.2%
Cc1nc2c(C(=O)N3CCCC3)c[nH]n2c(=O)c1Cc1ccc(F)cc1Cl	-0.9	i	-5.5%
CCOC(=O)c1nc2nc(C)c(Cl)c(=O)n2[nH]1	0.45	i	7.7%
COc1ccc(OC)c(S(=O)(=O)N2CCC(C(=O)NCC3CCCO3)CC2)c1 (centres undefined)	1.41	i	2.6%
CC(C)(C)c1csc(NC(=O)Cn2cnc3ccccc3c2=O)n1	-0.95	i	5.9%
CCCCS(=O)CC(O)COCC (centres undefined)	/	i	-19.7%
COc1cc2c(cc1OC)C1=C(C#N)COCN1CC2	-0.23	i	2.8%
COC(=O)c1cc2sccc2n1CC(=O)Nc1cccc(SC)c1	-0.03	i	-1.7%
Cc1cc(C)c2oc(-c3cccc(NC(=O)c4ccc(F)cc4)c3)nc2c1	/	i	-5.3%
COC(=O)C(NC(=O)c1ccccc1)c1ccccc1 (centres undefined)	-0.31	i	-0.8%
Cc1cc(N2CCC(C)CC2)n2nc(C)c(-c3ccccc3)c2n1	1.59	i	1.2%
Cc1ccc(OCCn2cc(/C(N)=N/O)c3ccccc32)cc1C	-0.64	i	0.5%
Cc1nc2ccc(C(=O)N3CCN(c4ccccn4)CC3)cc2s1	-0.83	i	2.8%
CCCc1nc2c3cnn(-c4cccc(Cl)c4)c3ncn2n1	0.09	i	-10.3%
Cc1ccc(C)c(Nc2ncnc3nc[nH]c23)c1	0.55	i	4.3%
Cc1ccccc1Nc1nc(N)nc(CSc2nc3ccccc3c(=O)n2CCCO)n1	-0.53	i	-8.5%
CC(=O)c1cccc(NC(=O)c2cc3nc(C)cc(C)n3n2)c1	-1.2	i	3.9%
CCCCCCC(=O)N1CCC(c2nc3c(nnn3Cc3ccccc3Cl)c(=O)[nH]2)CC1	0.01	i	-0.1%
CCCc1cc(SCC(=O)Nc2c(C)n(C)n(-c3ccccc3)c2=O)n2c(nc3ccccc32)c1C#N	/	i	-1.3%
O=C(CSCCO)N1CCc2ccccc21	-0.55	i	0.7%
c1csc(Cc2nn3c(-c4n[nH]c5c4CCC5)nnc3s2)c1	-1.37	i	-0.2%
N#CCSc1nc2cc(C(=O)N3CCCC3)ccc2c(=O)n1Cc1ccccc1	-0.6	i	-3.7%
O=c1c2ccccc2c(C=NC2CCS(=O)(=O)C2)c(O)n1-c1ccccc1 (centres undefined)	-0.06	i	-9.4%
Cc1cccc(-c2noc(CN(C(=O)c3ccc4c(c3)OCO4)C(C)C)n2)c1	-0.01	i	-10.5%
CCN(CC)c1ccc(NC(=O)c2ccccc2F)cc1	0.73	i	1.8%
CSc1nnc(Cc2ccc3c(c2)OCO3)o1	0.17	i	-0.7%
CN1C(=O)NC(NC(=O)c2ccco2)(C(F)(F)F)C1=O (centres undefined)	0.38	i	6.0%
Cc1ccc(F)cc1NC(=O)C1CCCN(c2ncccn2)C1 (centres undefined)	-0.12	i	1.9%
CCCCC(=O)N(c1ccc(OCC)cc1)C1C=CS(=O)(=O)C1 (centres undefined)	-0.86	i	-5.0%
CCNc1ccc(C(=O)OCC)cc1NC(=O)c1cccc(N(C)C)c1	-0.67	i	1.8%
Cc1c(C(=O)N2CCN(C(=O)c3ccco3)CC2)sc2nc(-c3ccc(F)cc3)cn12	0.59	i	-1.0%
COc1cc(C(=O)N2CCC(C(=O)Nc3cccc(C(C)=O)c3)CC2)cc(OC)c1OC	-0.21	i	0.8%
CCCSc1nc(O)c(C2OC(=O)c3c2ccc(OC)c3OC)c(=O)n1-c1ccccc1 (centres undefined)	/	i	3.9%
CCOC(=O)c1ccc(NC(=O)Cn2nnc(-c3ccc(F)cc3)n2)cc1	0.17	i	2.8%
CN1CCN(C(=O)c2ccc(C(C)(C)C)cc2)CC1	-0.84	i	8.0%
CC(C)Cn1c(SCC(=O)c2ccc(Cl)s2)nnc1-c1ccco1	-0.36	i	1.3%
Cc1ccccc1Cn1cnc2c(cnn2C(C)(C)C)c1=O	-1.05	i	6.2%
CC(=O)Nc1cc2ccc(OC(C)=O)cc2oc1=O	4.25	i	4.4%
Cc1noc(C)c1S(=O)(=O)N1CCCC(C(=O)NCC2CCCO2)C1 (centres undefined)	1.38	i	-0.2%

The results go on:
SMILES	WNV NS2B-NS3 inh	MT1-MMP reporter	Hsc70
CC(=O)c1nn(-c2cccc(Cl)c2)cc1C(=O)c1ccco1	-0.57	i	-3.7%
Cc1ccc(CSc2nc3c(c(=O)[nH]2)C(c2ccncc2)C2=C(CCCC2=O)N3)cc1 (centres undefined)	0.66	i	1.0%
COCC(C)NC(=O)COc1ccc(Cl)cc1Cl (centres undefined)	-0.11	i	5.2%
Cc1c(C(=O)N2CCc3ccccc32)oc2c1C(=O)CC(C)(C)C2	-0.43	i	1.8%
CC(C)(C)OC(=O)c1c(N)n(CCCN2CCCC2=O)c2nc3ccccc3nc12	1.55	i	-2.2%
Cc1cc(=O)oc(C)c1C(=O)NCCC1=CCCCC1	-0.19	i	-1.8%
COc1ccc(N2CC(C(=O)Nc3ccccc3C(=O)NCc3ccco3)CC2=O)cc1 (centres undefined)	0.84	i	4.6%
O=C(NC1CCC(NC(=O)C2CCCO2)CC1)C1CCCO1 (centres undefined)	-0.16	i	-4.7%
c1ccc(-n2nnnc2Oc2ccc(-c3nnco3)cc2)cc1	0.44	i	14.6%
COc1ccccc1OCCC(=O)OCC(=O)Nc1ncc(Cl)cc1Cl	-1.04	i	5.7%
O=S(=O)(NCCOCC(F)(F)F)c1ccc2oc3ccccc3c2c1	1.16	i	-7.4%
Cc1csc(OCC(=O)Nc2ccc(C)c(C)c2)n1	/	i	0.8%
CCc1nn(C(C)C(=O)NC(C)CCc2ccco2)c(=O)c2cc3occc3n12 (centres undefined)	0.21	i	-1.1%
O=[N+]([O-])c1ccc(/C=N/Nc2nc(N3CCCCCC3)nc(N3CCCCCC3)n2)o1	/	i	-6.8%
CN(C(=O)c1ccccc1)c1ccc(OCC(=O)NC2CCS(=O)(=O)C2)cc1 (centres undefined)	-1.02	i	9.5%
CCCCn1c(SCC(=O)c2ccccc2)nc2c1c(=O)[nH]c(=O)n2C	-1.33	i	-6.6%
COc1ccc(-c2csc(N(CCCN3CCOCC3)C(=O)c3ccco3)n2)cc1	-0.83	i	0.0%
COc1ccc(S(=O)(=O)Nc2ccccn2)c(C)c1C	0.75	i	6.4%
CCn1c(SCC(=O)N2CCCC2)nc2ccccc2c1=O	-1.01	i	-3.5%
Cc1nc(C)n(CC(O)COc2ccc(C(=O)c3ccccc3)cc2)n1 (centres undefined)	-0.19	i	3.3%
COc1ccc(N2CSC3=C(C#N)C(c4cccc(OC)c4OC)CC(=O)N3C2)cc1 (centres undefined)	0.11	i	4.2%
CCOc1ccc2nc(NS(=O)(=O)c3ccc(NC(C)=O)cc3)sc2c1	-0.57	i	-0.2%
CSc1ccccc1NC(=O)Nc1cccc(Cl)c1	/	i	-4.5%
CCCN1C(=O)SC(CC(=O)Nc2ccc(Br)cc2)C1=O (centres undefined)	-1.29	i	1.9%
CN1C(=O)NC(NC(=O)c2ccncc2)(C(F)(F)F)C1=O (centres undefined)	-1.48	i	1.4%
O=C1NCCN1C(=O)c1ccccc1F	-0.19	i	4.6%
CCn1c(Cc2ccccc2)nnc1SCC(=O)Nc1ccc(C)cc1	/	i	-3.7%
CCCCOC(=O)CSCC(=O)Nc1cc(C)on1	-0.65	i	3.0%
CCOC(=O)c1cc(-c2ccc(Cl)s2)nc2c1c(C)nn2C	0.34	i	-5.0%
COc1ccc(-n2ncc3c(=O)n(CC(=O)N4CCCc5ccccc54)cnc32)cc1	-0.19	i	-1.0%
CCCS(=O)(=O)N1CCC(C(=O)NCc2cccnc2)CC1	-0.98	i	-3.5%
NC(=S)N/N=C/c1cc([N+](=O)[O-])ccc1OCCOc1ccccc1	/	i	8.9%
CC(C)C(NC(=O)CN(c1cccc(F)c1)S(C)(=O)=O)C(C)C	/	i	8.2%
CC1CCCCC1n1c(=S)[nH]c2ccccc2c1=O (centres undefined)	-0.45	i	8.4%
C/C(=N/NC(=O)c1cccc(C)c1)c1c(O)cc(C)oc1=O	/	i	6.5%
Cc1nn(C)cc1CNC(=O)c1ccc(Br)o1	0.66	i	-3.5%
Cc1cc(N2CCN(C3CCCCC3)CC2)n2nc(C)nc2n1	0.04	i	-0.8%
CCC(C(=O)NC1CCCC1)N(C(=O)Cn1nnc(-c2ccc(C)cc2)n1)C1CCCC1 (centres undefined)	/	i	0.2%
Cc1cc(S(=O)(=O)n2cnc3ccccc32)c(C)cc1Cl	0.35	i	-1.1%
O=C(CN1CCC(n2nnc3cc(F)ccc32)CC1)NC1CC1	-0.89	i	-4.2%
CCCc1nc(NCc2ccncc2)c2nnn(Cc3ccccc3F)c2n1	-0.01	i	-3.9%
CCC(=O)Nc1cccc(Br)c1	0.02	i	2.1%
O=C(NCc1ccccc1)C1CCCN(S(=O)(=O)c2cccnc2)C1 (centres undefined)	-0.29	i	2.1%
Cc1ccc(C)c(-n2nnnc2SCC(=O)NCCC2=CCCCC2)c1	0.09	i	1.2%
Cc1c(C#N)c2ncn(Cc3ccccc3)c(=O)c2n1-c1ccccc1	1.09	i	0.7%
NCCCCCc1nnc(SCc2cccc(Cl)c2)o1	1.45	i	1.3%
